# Assay outcomes: PubChem, National Center for Advancing Translational Sciences (NCATS)
# D2 potentiator: human D2 receptor positive allosteric modulation; DiscoveRx D2 beta-arrestin cells, luminescence, 90 min; 100% = 57 uM dopamine signal; 360,000 tested, 0.23% active; potentiation, % (concentration not given with the values); active = potentiation of 50% or more; inconclusive = 30% to 50%; inactive = 30% or less;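 also: compound concentration not given in the record; tested on top of an EC20 dose of dopamine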
# Target sequence (P14416 whole entry, looked up): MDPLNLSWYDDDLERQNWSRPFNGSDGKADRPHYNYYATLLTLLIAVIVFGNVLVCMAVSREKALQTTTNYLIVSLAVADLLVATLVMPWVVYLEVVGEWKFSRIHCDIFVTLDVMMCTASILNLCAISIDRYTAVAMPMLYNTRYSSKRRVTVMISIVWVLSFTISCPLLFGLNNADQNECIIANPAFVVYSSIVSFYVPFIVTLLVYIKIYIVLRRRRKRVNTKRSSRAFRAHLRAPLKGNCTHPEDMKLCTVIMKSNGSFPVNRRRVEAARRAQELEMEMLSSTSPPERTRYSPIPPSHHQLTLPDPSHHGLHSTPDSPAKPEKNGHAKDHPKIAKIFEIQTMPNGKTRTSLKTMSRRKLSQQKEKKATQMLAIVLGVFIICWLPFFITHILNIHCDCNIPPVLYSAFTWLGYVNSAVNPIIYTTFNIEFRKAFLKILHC
#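 PathHunter D2 cells, attached overnight at 37 deg C, received compound in DMSO plus dopamine at EC20 (50 nM final) for 90 min at 37 deg C. Beta-arrestin recruitment was read as luminescence after 1 h with detection reagent at ambient temperature.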
# Six1-Eya2 inh: inhibitors of human Six1/Eya2 interaction | Q15475+O00167 | AlphaScreen GST-Six1/His-Eya2 binding, biochemical; hits give low values; control for the full effect not named in the record | activity change, % (concentration not given with the values) | 360,000 tested, 0.56% active | AID 651725; in the data active = activity change below about -65%; inconclusive = about -30% to -65%; inactive = above about -30%; also: % is scaled to controls: 0 for no effect and ±100 for the full control effect
#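 GST-Six1 + His-Eya2 (5X stock: 250/500 nM); Tris pH 8.0, 300 mM NaCl, 0.05% BSA, 0.02% Tween 20; GSH donor/Ni acceptor beads; 1 h 37 °C dark; AlphaScreen readout.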
# D2 ag: agonists of human D2 dopamine receptor (beta-arrestin); DiscoveRx PathHunter D2 beta-arrestin, luminescence, 90 min; 100% = 57 uM dopamine signal; activation, % (no concentration beside the values); 360,000 tested, 0.084% active; AID 624465; in the data active = activation above about 40%; inconclusive = about 15% to 40%; inactive = below about 15%; also: compound concentration not given in the record; the text of the record calls up to 30% inactive
#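 DiscoveRx PathHunter D2 beta-arrestin cells (2,100/well) attached overnight, then compound-stimulated 90 min at 37 C in HBSS/10 mM HEPES/0.1% Tween-20 buffer; beta-galactosidase complementation read by luminescence after 1 h at ambient temperature. Dopamine 57 uM final (EC100) as control.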
# PINK1 modulator: modulators of PINK1 expression; PINK1 immunofluorescence, high-content cytometry, 24 h; Potency, µM (doses to about 76.6 µM), for inactives: top-dose activation (PINK1 increase), hits mostly activators; 410,000 tested, 0.2% active; active = well fitted activation curve with a large enough effect; inconclusive = small, poorly fitted or top-dose-only effect; inactive = flat fitted curve, though single readings scatter; cell line not stated here;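 also: potency is read from the fitted curve at half-maximal effect; % of control where 0% means no effect; nearly all actives have a fitted effect of over 65% in size; a mitochondrial uncoupler was the plate control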
#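 Measures PINK1 amount and localization on or inside mitochondria by immunofluorescence. Stable cells get compounds at 5 concentrations for 24 hours before fixation and staining; CCCP controls included.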
# CtBP-E1A blk: inhibitors of CtBP/E1A interaction; 340,000 tested, 0.49% active; AlphaScreen GST-E1A/His-CtBP binding, 1536-well; hits give low values; control for the full effect not named in the record; AID 651724; activity change, % (no concentration beside the values); in the data active means activity change below about -65%; inconclusive means about -30% to -65%; inactive means above about -30%; also: % is scaled to controls: 0 for no effect and ±100 for the full control effect; compound concentration not given in the record
#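 Homogeneous bead-based format: GST-tagged E1A captured on glutathione donor beads, His-tagged CtBP on nickel acceptor beads; compounds precede bead addition by 2 h at 37 °C.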
# TRPV1 PAM: enhances activation of the human vanilloid receptor TRPV1 | Q8NER1 | TRPV1-expressing cells, Fluo-8 calcium influx, capsaicin EC20 potentiation; host cell line not named in the record; control for the full effect not named in the record | potentiation, % at 8.33 µM | 320,000 tested, 0.02% active | AID 540277; active means potentiation above 80%; inconclusive means 30% to 80%; inactive means below 30%; also: 0% is about no effect
#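 Cells expressing TRPV1 were dye-loaded with Fluo-8 and read kinetically: 10 s baseline, 3 min after compound (agonist portion), then 2 min after EC20 capsaicin (allosteric enhancer portion). Calcium-bound dye fluorescence at 480/520 nm.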
# Sfp inh: Sfp phosphopantetheinyl transferase inhibition; Biochemical Sfp PPTase activity, qHTS; Potency, µM, inactives show max response, negative = inhibition, hits mostly inhibitors; 310,000 tested, 3.5% active; active = well fitted inhibition curve with a large enough effect; inconclusive = small, poorly fitted or top-dose-only effect, or another doubt; inactive = no such curve, though single readings can be large or run the other way;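 also: the enzyme is Sfp with the accession as filed and its product quenches rhodamine fluorescence; potency is read from the fitted curve at half-maximal effect; 0% = enzyme reaction without inhibitor and -100% = no enzyme wells; top concentration of the series not given in the record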
#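 Sfp 15 nM + cpd, 15 min RT; start w/ rhodamine-CoA 5 uM, BHQ-2-YbbR 12.5 uM (final); 50 mM Hepes pH 7.6, 10 mM MgCl2, 0.01% NP-40, 0.01% BSA; read 525/598 nm at 0 and 30 min.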
# * marks the source's active call; other numbers are inactive results; ? = inconclusive; / = not tested or not shown; & = joins results of further samples; [ ] = dose if it differs, or a comment. Random draw from the library; any-hit rate near 3.7%.
SMILES	D2 potentiator	Six1-Eya2 inh	D2 ag	PINK1 modulator	CtBP-E1A blk	TRPV1 PAM	Sfp inh
Cc1cccc(CS(=O)(=O)c2ncc(CO)n2C)c1	1	0	3.1	-0.6%	/	10	16%
Cn1c(SCCc2ccc([N+](=O)[O-])cc2)nccc1=O	1	-1	9.0	-0.6%	3	/	/
Cc1ccc(-c2nnc(NC(=O)c3ccc([N+](=O)[O-])o3)o2)c(C)c1	18	-7	-3.3	-7.5%	5	26	/
O=C(CSc1ncccn1)NCc1ccc(F)cc1	-12	6	-3.4	-3.2%[38.3 µM]	5	-5	10%
Cc1[nH]c2ccccc2c1C(=O)C(=O)NCc1ccco1	3	5	-1.0	0.4%	0	15	14%
COc1cccc2sc(N3CCN(C(=O)c4ccc([N+](=O)[O-])o4)CC3)nc12	21	-11	10	?	0	18	/
O=C(Nc1nnc(-c2ccco2)o1)c1ccc([N+](=O)[O-])s1	-15	-18	-3.7	1.9%	-22	5	-11%
Cn1ncc2c(Nc3ccc(-c4ccccc4)cc3)ncnc21	11	-7	1.5	0.4%[38.3 µM]	-16	-3	-4%
O=C(CN1C(=O)c2ccccc2C1=O)N1CCN(S(=O)(=O)c2ccccc2)CC1	-2	4	-4.4	0.0%	4	22	22%
COc1cc2cnc(-c3ccccc3)c(C(=O)c3ccc(OCc4ccccc4)cc3)c2cc1OC	/	-20	-1.5	1.0%	-7	/	/
CC(OC(=O)Cc1ccc(Cl)cc1)C(=O)NCCC1=CCCCC1 (stereo unspecified)	-3	-6	-3.2	1.4%	-15	-4	10%
CCOC(=O)c1ccc(NC(=O)c2cccnc2)cc1	-6	10	3.2	-0.1%	-5	-22	11%
COc1ccccc1OCC(=O)N1CCN(c2ccccc2OC)CC1	6	0	1.8	3.3%[38.3 µM]	5	2	-11%
Cc1c(NC(=O)c2ccc(Cl)c(S(=O)(=O)N3CCCCC3)c2)c(=O)n(-c2ccccc2)n1C	-16	-3	-4.2	0.7%	11	24	5%
CC(=O)NC(CC(C)C)C(=O)NC(CO)C(=O)NC(CCC(=O)O)C(=O)NC(C)C(=O)NC(CC(C)C)C(N)=O (stereo unspecified)	-10	-6	-2.9	0.7%	-6	/	/
CC1(C(=O)NS(=O)(=O)c2ccc(Br)cc2)CCN1C(=O)C/C=C/c1ccccc1 (stereo unspecified)	-7	7	-3.0	-0.7%	0	/	/
COC(=O)[C@H](CC(C)C)NC(=O)Cn1cnc2c(SC)nc(N)nc21	/	1	-1.5	-0.3%	7	/	/
CN(C(=O)c1cccc(C#N)c1)c1nnc(C2CCCO2)s1 (stereo unspecified)	-54	13	-1.6	1.8%	4	1	14%
COc1ccc(-n2nc(C(C)=O)c(=O)[nH]c2=O)cc1	9	5	-1.9	-1.3%	-12	-2	1%
Cc1cc(/C=C(\C#N)C(=O)NC2CCCCCC2)c(C)n1C	-21	14	-2.3	1.3%	1	-8	?
CCCCOc1ccc(C2(C)NC(=O)N(C)C2=O)cc1 (stereo unspecified)	7	1	0.7	0.6%	/	-2	2%
CC(C)CC(=O)N1CCN(S(=O)(=O)c2ccc(F)cc2)CC1	-13	1	-2.4	3.4%[38.3 µM]	4	-54	7%
CCN(CC(=O)Nc1c(F)cccc1F)C(=O)c1cccnc1Sc1ccccc1	-24	19	-4.1	-3.2%	9	-10	/
COCCNC(=O)CN(C(=O)Cn1nnc2ccccc21)c1ccccc1	2	9	1.2	-1.1%	-4	23	-8%
O=C(Nc1nn[nH]n1)c1cccc(Oc2ccccc2)c1	-6	13	-2.7	3.1%	0	8	-6%
CC(C)CN(C(=O)COC(=O)C12CC3CC(CC(C3)C1)C2)c1c(N)n(Cc2ccccc2)c(=O)[nH]c1=O	2	8	-5.4	-1.6%	6	6	/
CCOC(=O)C1CCN(C(=O)CCCCn2c(=O)[nH]c3ccccc3c2=O)CC1	-19	-4	-1.9	0.0%	1	7	12%
O=C(C[C@H]1C/C=C\C[C@@H](Cc2ccc(F)cc2)C(=O)OC[C@@H](Cc2c[nH]c3ccccc23)NC1=O)NCCO	-4	1	-0.6	0.4%	1	/	/
C=CCN(CC=C)CCCOc1ccc(C)cc1OC	-19	0	-2.9	1.9%	-9	-9	-23%
CCOC(=O)c1sc(NC(=O)c2cc(-c3ccccc3C)nc3ccccc23)c(C#N)c1C	-22	-2	0.2	?	7	1	45µM*
CCO[C@H]1OC(C(=O)O)=C[C@@H](c2coc3ccccc3c2=O)[C@@H]1CCCO	-23	7	-2.7	0.4%	0	/	/
COc1ccc(CSc2ccc(S(=O)(=O)N3CCCCC3)cn2)cc1F	-1	4	6.2	7.0%	6	-9	/
Cc1ccc(NS(=O)(=O)c2ccc(-c3ccc(=O)[nH]n3)o2)c(C)c1	-30	-7	-3.4	-1.2%	-2	-8	24%
CCOc1cc(CO)cc(Br)c1OCC(N)=O	-9	6	-1.4	2.2%	/	-1	19%
CC1(C)N=C(SCC(=O)Nc2ccccc2)C(c2ccc(Cl)cc2)=N1	-5	-1	0.8	2.1%	1	1	12%
CCOC(=O)N1CCC(N2CCCC(CO)(Cc3ccccc3C)C2)CC1 (stereo unspecified)	-9	-3	-29	0.7%	/	0	-2%
C=C1c2ccccc2O[C@H](C(=O)OCC)[C@@H]1C1CCCCC1	/	17	2.7	?	17	/	/
O=C(CN1CCCCC1)Nc1ccccc1NC(=O)CN1CCCCC1	-4	10	-0.1	-0.4%	4	-3	1%
COc1ccccc1Cc1c(C(C)(C)C)nc2cc(C)c(Br)c(C)n12	/	-2	/	23%	4	/	/
Cc1cc(NCCOCCO)n2ncc(-c3ccc(Cl)cc3)c2n1	5	3	-1.6	-0.4%	4	3	-17%
Cc1ncoc1C(=O)N1CCCC(C(=O)c2cccc(C(F)(F)F)c2)C1 (stereo unspecified)	0	5	-3.6	1.8%	10	-2	24%
CC(=O)Nc1ccc(S(=O)(=O)N2CCC(C(=O)NCCC(=O)Nc3nccs3)CC2)cc1	22	-2	-0.2	-0.5%	1	8	5%
COC(=O)c1nc(N)sc1-c1ccccc1	19	-1	-0.7	0.8%	1	-7	22%
CCN(CCCNC(=O)Cn1ncc2c([nH]c3ccc(C)cc32)c1=O)c1cccc(C)c1	-6	10	8.4	-1.2%&2.5%	-12	1	5%
Cc1cccc(-c2noc(CN(C(=O)c3c(-c4ccccc4Cl)noc3C)C(C)C)n2)c1	-2	-6	0.5	0.9%	-2	/	20%
Cc1ccc(NC(=O)Cc2ccc(Cl)cc2)nc1	-1	-16	-9.5	1.8%	-1	/	/
Cc1cc(C)c2c(CN3CCN(C/C=C/c4ccccc4)CC3)cc(=O)oc2c1	-21	-19	-1.2	1.5%	-14	7	-25%
c1cnc(N2CCN(c3ccc4ccccc4n3)CC2)nc1	-11	5	-9.0	2.7%	8	-5	-3%
O=C(CN1CCCCCCC1)Nc1cc(Cl)cc(Cl)c1	-8	2	-6.1	?	6	5	-4%
O=C(NCc1ccncc1)[C@@H]1CCCN1C(=O)[C@H]1CCCN1C(=O)c1ccccc1	/	3	/	1.0%	4	/	/
Cc1[nH]nc2c1C(c1ccccn1)N(c1ccc(Br)cc1)C2=O (stereo unspecified)	-7	0	-3.8	2.7%[38.3 µM]	0	-3	3%
COc1ccc(C(=O)N(C)Cc2ccccc2F)cc1S(=O)(=O)N1CCCC1	-4	2	2.7	-0.1%	5	-28	/
Cc1cccc(NC(=O)COC(=O)CCc2c[nH]c3ccccc23)c1C	-1	-11	1.2	-2.3%	-8	-18	/
CCCCN(C(=O)c1ccc2c(c1)OCO2)c1c(N)n(CC(C)C)c(=O)[nH]c1=O	-2	1	-1.6	0.6%	7	-13	/
O=C(Nc1ccc(S(=O)(=O)N2CCCC2)cc1)N1c2ccccc2Sc2ccccc21	26	-11	6.1	/	8	12	12%
CCCCC(=O)Nc1nc(C)c(-c2csc(Nc3cc(Cl)ccc3OC)n2)s1	-13	-4	1.2	3.8%	/	-2	?
Cc1nc2ccccc2n1CC(=O)N1CC(=O)Nc2ccccc21	5	-4	-3.9	/	-7	-2	13%
COc1ccc(NC(=O)c2cccc(NC(=O)C3C4CC5OC(=O)C3C5C4)c2)c(OC)c1 (stereo unspecified)	-12	3	-1.8	1.1%	-1	7	8%
COc1ccccc1N1CCN(CC(=O)Nc2ccccc2C(=O)NCCc2ccccc2)CC1	3	-3	-6.6	-1.8%	-1	-11	/
CCC(=O)N(CCC(c1ccco1)c1ccccc1OC)Cc1cccs1 (stereo unspecified)	-9	-3	-2.0	/	1	-4	?

# Following part:
SMILES	D2 potentiator	Six1-Eya2 inh	D2 ag	PINK1 modulator	CtBP-E1A blk	TRPV1 PAM	Sfp inh
CN1CCN(c2nc3c(c(=O)[nH]c(=O)n3C)n2CCSc2nnnn2-c2ccccc2)CC1	-10	0	-2.4	0.2%	5	-11	23%
O=C(CCCN1C(=O)c2cccnc2C1=O)Nc1ccccc1F	1	-3	1.8	0.5%	4	-2	12%
Cc1cccc(N2CCN(C(=O)CCNS(=O)(=O)c3ccc4c(c3)CCC(=O)N4)CC2)c1C	1	0	1.9	-3.1%	9	-19	3%
CCOC(=O)c1sc(NC(=O)COC(=O)Cn2cnc3ccccc32)c(C(=O)OCC)c1C	-6	-27	-3.9	3.7%	3	-3	-5%
O=C(O)c1ccc(N/N=C/c2ccc3c(c2)OCO3)cc1	18	-5	6.7	-1.1%	3	10	-1%
O=C(NC(NC(=S)Nc1ccccc1)C(Cl)(Cl)Cl)c1cccc(Cl)c1 (stereo unspecified)	-1	-5	5.9	?	5	13	19%
O=C(/C=C/c1ccc(S(=O)(=O)NCc2ccco2)cc1)N1CCN(c2ccccc2)CC1	5	-11	0.5	5.0%	-4	15	9%
CC1(C(=O)Nc2ccccc2Br)CCN1C(=O)Cc1ccc(Cl)cc1Cl (stereo unspecified)	2	-2	-4.2	-0.4%	0	/	/
O=C(OCn1ncc(Cl)c(Cl)c1=O)c1ccccc1Cl	-27	-9	-0.7	-3.3%	-4	-8	5%
